VACV mCherry inh: vaccinia inhibition (mCherry reporter) | Potency, µM (series often up to 36.5 µM), inactives show top-dose activity change, negative = inhibition, hits mostly inhibitors | Vaccinia virus mCherry reporter infection, fluorescence; about a quarter of the inactives have no number | hit rate 0.63% among 310,000; active = well fitted inhibition curve with a large enough effect; inconclusive = small, poorly fitted or top-dose-only effect; inactive = no such curve, though single readings can be large or run the other way; tested in A549 cells; note: nearly all actives have a fitted effect of over 35% in size; inactives centre near -10
VACV Venus inh: inhibitors of vaccinia virus (Venus reporter); hit rate 0.46% among 330,000; Potency, µM (titrated, usually from 36.5 µM), for the others: at the top dose activity change, negative = inhibition, most hits filed as inhibitors; Vaccinia virus Venus reporter expression, fluorescence; active means well fitted inhibition curve with a large enough effect; inconclusive means small, poorly fitted or top-dose-only effect; inactive means no such curve, though single readings can be large or run the other way; tested in A549 cells; note: nearly all actives have a fitted effect of over 30% in size; inactives centre near -10
Numbers without * were called inactive; i = inactive; ? = inconclusive; . = no result given; & = joins results of further samples; [ ] = another dose, or the depositor's remark. % is set by controls: 0 for no effect and ±100 for the full control effect; potency is the fitted concentration of half-maximal effect. Compounds as they come, and some 0.87% of all compounds hit somewhere here.

mol	VACV mCherry inh	VACV Venus inh
Cc1cc(C(=O)CSc2n[nH]c(N)n2)c(C)n1C1CC1	.	-17%
COc1ccc(-c2ccc(CNCCCSc3nnnn3C)o2)cc1Cl	1%	-5%
Cc1ccc(CN2Cc3cccc4c3[C@@H](CC2=O)[C@H](O)[C@H](O)C4)cc1	i	-12%
CCc1ccc(C(O)c2ncc(-c3cccc(C)c3)[nH]2)cc1 (configuration not stated)	i	-12%
COc1ccc(-c2nc(S(=O)(=O)c3ccccc3)c(N3CCCC3)o2)cc1	-12%	-9%
CSc1nc2[nH]c3c(c2c2nnnn12)CCCC3	i	-7%
O=C1CN(S(=O)(=O)c2ccc(Cl)cc2C(F)(F)F)CCN1	2%	-7%
Cc1ccc(C(=O)/C=C/Nc2ccc([N+](=O)[O-])cc2Br)cc1	.	-4%
Cc1noc(C)c1S(=O)(=O)N(CC(=O)O)c1ccc2c(c1)OCO2	.	26%
CN(C)S(=O)(=O)c1cccc(C(=O)Nc2cccnc2)c1	.	5%
CCc1ccc(S(=O)(=O)c2nnn3c2nc(N2CCCC(C)C2)c2cc(Cl)ccc23)cc1 (configuration not stated)	-16%	-17%
COc1cccc2c1C(=O)/C(=C/c1ccc(N(C)C)cc1)C2	?	?
O=C(CSCCO)Nc1cccc(C(F)(F)F)c1	-11%	-4%
CCOC(=O)c1ccc(NC2=CC(c3ccc(O)c(OCC)c3)N(c3ccc(C(=O)OCC)cc3)C2=O)cc1 (configuration not stated)	?	?
Cc1ccccc1NC(=O)c1ccc([N+](=O)[O-])o1	-27%	-20%
S=c1[nH]nc(-c2ccc3ccccc3n2)n1-c1ccccc1	i	-25%
Cc1ccc(C2=CC(c3ccccc3)n3ncnc3N2)cc1 (configuration not stated)	-13%	-19%
COc1ccc(CCNC(=O)Cn2cc(C(=O)c3ccc(F)cc3)c(=O)c3ccc(C)nc32)cc1OC	5%	3%
COc1ccc(COCC(O)CN2CCOCC2)cc1OC (configuration not stated)	.	8%
Cc1ccc(-c2nnn(CC(=O)Nc3ccc(S(=O)(=O)N4CCC(C)CC4)cc3)n2)cc1	-10%	-14%
CCOC(=O)c1c(NC(=O)C(=O)N/N=C/c2ccc(OCC)cc2)sc2c1CCCCC2	i	-9%
COc1ccc(CCNC(=O)[C@H](C)N2C(=O)N3CCc4c([nH]c5ccccc45)[C@@]3(C)C2=O)cc1	-4%	-25%
COc1cccc(-c2nnc(N(C)C(=O)C3CCOC3)s2)c1 (configuration not stated)	i	-12%
COc1ccccc1Cc1c(C(C)(C)C)nc2ccc(C)cn12	2%	-9%

Single records, from the list above.
COc1cccc(-c2nnc(N(C)C(=O)C3CCOC3)s2)c1 (configuration not stated) across the screens: VACV mCherry inh = i; VACV Venus inh = -12%
S=c1[nH]nc(-c2ccc3ccccc3n2)n1-c1ccccc1 across the screens: VACV mCherry inh = i; VACV Venus inh = -25%

Additional entries follow.
mol	VACV mCherry inh	VACV Venus inh
O=C(Cc1ccc(Br)cc1)NO	i	-9%
Nc1c(C(=O)NCc2ccccc2)c2nc3ccccc3nc2n1-c1ccc2c(c1)OCO2	-2%	-14%
Cc1cccc(N2CC(C(=O)NC3CCCCCC3)CC2=O)c1C (configuration not stated)	i	-17%
COC(=O)[C@@H]1C[C@H]2CC[C@H](O)C[C@H]2N1Cc1ccccc1OS(=O)(=O)c1ccc(C)cc1	-5%	-9%
NC(=O)COC(=O)c1c2c(nc3ccccc13)CCCC2	i	-2%
COC(=O)Cc1ccc(OC2(C)CCN(Cc3ccccc3OC(F)F)C2)cc1 (configuration not stated)	3%	2%
CCN(CC)CCNC(=O)CN1C(=O)COc2ccc(S(=O)(=O)N3CCOCC3)cc21	-8%	1%
O=C(NNC(=O)c1ccncc1)Nc1cccc([N+](=O)[O-])c1	i	-6%
O=c1c2ccccc2nc2n1CCS2(=O)=O	i	-6%
CCCCCCCc1n[nH]c(=S)n1Cc1ccccc1	i	-11%
COc1ccc(NC(=O)C[C@H]2C(=O)N(Cc3ccccc3)C[C@@H]2CSC)cc1	-10%	-17%
CCc1ccc(CNCc2ccc(F)cc2)cc1	-20%	-12%

Laid out differently: entries from further up
Results follow in this order: VACV mCherry inh	VACV Venus inh
> CSc1nc2[nH]c3c(c2c2nnnn12)CCCC3
    i	-7%
> COc1ccc(CCNC(=O)[C@H](C)N2C(=O)N3CCc4c([nH]c5ccccc45)[C@@]3(C)C2=O)cc1
    -4%	-25%
> Nc1c(C(=O)NCc2ccccc2)c2nc3ccccc3nc2n1-c1ccc2c(c1)OCO2
    -2%	-14%
> CCN(CC)CCNC(=O)CN1C(=O)COc2ccc(S(=O)(=O)N3CCOCC3)cc21
    -8%	1%
> CCc1ccc(S(=O)(=O)c2nnn3c2nc(N2CCCC(C)C2)c2cc(Cl)ccc23)cc1 (configuration not stated)
    -16%	-17%
> CCOC(=O)c1ccc(NC2=CC(c3ccc(O)c(OCC)c3)N(c3ccc(C(=O)OCC)cc3)C2=O)cc1 (configuration not stated)
    ?	?
> COC(=O)[C@@H]1C[C@H]2CC[C@H](O)C[C@H]2N1Cc1ccccc1OS(=O)(=O)c1ccc(C)cc1
    -5%	-9%

Carrying on:
mol	VACV mCherry inh	VACV Venus inh
CC(=O)c1ccc(NC(=O)CSc2ccsc2[N+](=O)[O-])cc1	-11%	-21%
CCC(Cn1nnc2ccccc2c1=O)NC(=O)Nc1ccccc1Cl (configuration not stated)	-1%	2%
COc1cc2nc(C3CCC3)n(NC(=O)c3ccco3)c(=O)c2cc1OC	-2%	-2%
CCOc1ccc(NC(=O)CN2CCN(CC(=O)Nc3ccc4c(c3)OCO4)CC2)cc1	.	-4%
COc1cccc(NC(=O)N2CCN(S(C)(=O)=O)CC2)c1	0%	3%
CCCOC(=O)Nc1ccc(C(N)=O)cc1	-6%	-10%
CC(=O)c1cc2c(cc1NC(=O)CN1CCCCCC1)OCO2	-6%	-17%
Cc1cccc(OC(C)C(=O)Nc2ccc(S(=O)(=O)N3CCCC3)cc2)c1 (configuration not stated)	i	-11%
COc1cccc(NC(=O)CN(C)C(=O)c2c(-c3ccccc3)noc2C)c1	-9%	-10%
O=C(Nc1ccc(F)c(Cl)c1)c1cc(-c2ccco2)on1	-14%	-16%
CCn1c(SCC(=O)O)nnc1-c1ccc2[nH]c(C)c(C)c2c1	i	0%
Cn1cc(CN2CCCC(CNC(=O)c3ccc4c(c3)OCO4)C2)c2ccccc21 (configuration not stated)	-3%	-19%
Cc1cc(=O)n(CC(=O)Nc2ccc(Cl)c(Cl)c2)c(-n2nc(C)cc2C)n1	-8%	0%
COc1ccc(C2CC(=O)c3sc(NC(C)=O)nc3C2)cc1 (configuration not stated)	i	-17%
COc1cccc2cc3c(=O)oc4ccccc4c3nc12	.	2%
COc1ccccc1NC(=O)N1CCC(CN2CCc3ccccc3C2)CC1	-9%	-8%
COc1ccc(NS(=O)(=O)c2cc3c4c(c2)CC(=O)N4CCC3)cc1Cl	-1%	-13%
CCOC(=O)C1CCN(C(=O)C2COc3ccccc3C2)CC1 (configuration not stated)	-9%	-12%
Cc1nn(C)c(C(=O)N2CCN(C(=O)c3ccco3)CC2)c1[N+](=O)[O-]	-15%	-13%
C=C1C(=O)[C@]23C[C@H]1CCC2[C@@]1(C)C(C[C@@H]3O)[C@](C)(C(=O)O)CC[C@@H]1O (some centres not stated)	?	?
COc1ccc2c(c1)c(=O)cc(-c1ccccc1)n2C	-5%	-4%
COCCNC(=O)C1(C)CCCN(C(=O)c2c(F)ccc(C)c2F)C1 (configuration not stated)	i	-8%
CCC(C)NC(=O)C1CCN(C(=O)c2cc3sccc3n2Cc2ccc(Cl)cc2)CC1 (configuration not stated)	-30%	?
C=CCN1C(=O)C2(OCCCO2)c2cc(CCCC)ccc21	-6%	-21%
Cc1nc2cc(C(=O)OCC(=O)Nc3cccc(Cl)c3)ccc2n1-c1ccccc1	-12%	-4%
O=C(O)c1c(Cl)cccc1Nc1ccccc1	-9%	-4%
O=C(COc1cccnc1[N+](=O)[O-])Nc1c(Cl)cccc1Cl	-2%	-4%
CC(=O)Nc1nc(CCl)cs1	-5%	0%
COc1cccc(CNC(=O)CCS(=O)(=O)c2ccc3c(c2)NC(=O)CS3)c1	-15%[7.34 µM]	-3%[7.34 µM]
Cc1nn(CC(=O)NC(C)C)c(C)c1[N+](=O)[O-]	i	-3%
O=C(CCl)N1c2ccccc2Sc2c1ccc1ccccc21	-7%	-8%
O=C(CSc1nnnn1-c1cccc(F)c1)NC1CC1	-14%	-9%
Cc1ccc2c(c1)cc(C(=O)N[C@@H](Cc1ccccc1)C(=O)O)n2C	-13%	-7%
CCOc1ccccc1N1CC(C(=O)N2CCc3ccccc3C2)CC1=O (configuration not stated)	i	-3%
Cc1ccc2c(c1)c(=O)c1ccccc1n2CCCC(=O)Nc1ccc(C)c(F)c1	?	?
CC(=O)c1ccc(O)c(CC=C(C)C)c1	i	-2%
COc1cccc(NC(=O)C(=O)NCCCN2CCCC2=O)c1	-8%	5%
O=C(CC(=O)c1ccccc1)CS(=O)(=O)c1ccccc1	i	9%
CCC(Cc1ccccc1)NC(=O)c1ccc2nc(N3CCOCC3)sc2c1 (configuration not stated)	-23%	-5%
COc1ccc(OC)c(C2=C/C(=C/c3ccccn3)C(=O)O2)c1	i	-8%
Cc1ccc(NC(=O)Cn2nnc(-c3ccc4c(c3)OCO4)n2)cc1F	2%	3%
O=C1c2[nH]nc(-c3ccccc3O)c2C(c2ccccc2)N1Cc1ccco1 (configuration not stated)	-24%	?
O=C(C1CCCN(S(=O)(=O)c2ccccc2)C1)N1CCCc2ccccc21 (configuration not stated)	-18%	-11%
Cc1cccc(C(=O)NCCc2csc(C)n2)c1	0%	3%
CCCn1c(C)cc(/C=C(\C#N)C(=O)OCC(=O)NC(=O)NCC)c1C	.	-6%
CCC(=O)NC(c1cccs1)c1cc([N+](=O)[O-])c2cccnc2c1O (configuration not stated)	?	?
C[C@H]1CN([C@@H](C)CO)C(=O)c2cc(Br)cnc2O[C@H]1CN(C)Cc1ccccc1C(=O)O	i	-4%
COc1cccc(N2CCN(C(=O)c3cccnc3)CC2)c1	-17%	-13%

Fetched one by one from the list above:
mol	VACV mCherry inh	VACV Venus inh
O=C(C1CCCN(S(=O)(=O)c2ccccc2)C1)N1CCCc2ccccc21 (configuration not stated)	-18%	-11%
Cc1cccc(C(=O)NCCc2csc(C)n2)c1	0%	3%
C[C@H]1CN([C@@H](C)CO)C(=O)c2cc(Br)cnc2O[C@H]1CN(C)Cc1ccccc1C(=O)O	i	-4%
CCC(=O)NC(c1cccs1)c1cc([N+](=O)[O-])c2cccnc2c1O (configuration not stated)	?	?

Next compounds
mol	VACV mCherry inh	VACV Venus inh
C[C@@H]1CCCCO[C@@H](CN(C)S(=O)(=O)c2cn(C)cn2)[C@@H](C)CN([C@H](C)CO)C(=O)c2cc(N(C)C)ccc2O1	-2%	-10%
CCOC(=O)C1(CCc2ccccc2)CCN(Cc2cnc(N(C)C)s2)CC1	i	-10%
Cc1cc(C)c(NS(=O)(=O)c2ccc(-c3coc(C)n3)cc2)c(C)c1	-17%	-11%
COc1nc(NCCO)nc(Nc2cc(Cl)ccc2OC)n1	-9%	-18%
COc1ccc2c(c1)sc1ncc(C(=O)NCc3ccc(OC(C)C)cc3)c(=O)n12	3%	-8%
CC1(C)CC(=O)C2=C(C1)OC(c1cccs1)C(C#N)=C2N (configuration not stated)	-2%	1%
O=C(O)C1CC(O)CN1C(=S)Nc1ccccc1 (configuration not stated)	i	-13%
COc1cccc(CN2CCC(C(=O)NC(C)c3cccc4ccccc34)CC2)c1 (configuration not stated)	10%	-18%
O=C(CSc1nc2ccc(NC(=O)c3ccccc3C(=O)O)cc2s1)Nc1c(Cl)cccc1Cl	-19%	6%
N#CCSc1nnc(-c2ccccc2O)n1CCc1ccccc1	-2%	?
c1ccc(CN2CCN(c3nc(NCc4ccco4)c4ccccc4n3)CC2)cc1	?	?
Cc1ccc(CNC(=O)c2cc3c(s2)-c2c(C)cccc2OC3)cc1	?	-21%
CC(C)(C)OC(=O)C[C@@H]1C/C=C\C[C@@H](CC(=O)N(CCO)Cc2ccccc2)C(=O)NC[C@@H](c2ccccc2)OC1=O	i	-30%
CCN(CCO)Cc1csc2ccccc12	i	-3%
O=C(O)Cc1csc(-c2cccc(Oc3ccccc3)c2)n1	-2%&-6%	-2%&-4%
CCOc1cc(N2CCOCC2)c(OCC)cc1NC(=O)c1nn(CC)c(=O)c2ccccc12	-5%	-10%
CCOC(=O)c1cc2ccc(OC)cc2oc1=O	i	-14%
COc1cc(/C=C2\SC(=S)N(CCC(=O)NC3CCCC3)C2=O)cc(OC)c1OC	-5%	-7%
CCOC(=O)C1(C)CCCN(C(=O)c2ccc(F)cc2Cl)C1 (configuration not stated)	16%	-2%
COC(=O)/C(=C\Nc1ccc(Cl)cc1Cl)NC(=O)c1ccccc1	.	-7%
CCOC(=O)C1CCN(S(=O)(=O)c2ccc3c(c2)NC(=O)CS3)CC1	-24%	-17%
CSc1ncnc2c1ncn2CCCNC1CCN(Cc2ccccc2)CC1	-8%	-12%
O=C(CSC(=S)N1CCCC1)NCC(=O)Nc1ccccc1Br	-18%	-9%

Source: PubChem (National Center for Advancing Translational Sciences (NCATS))
